# gsp agonist: activates gsp, the McCune-Albright syndrome mutation. gsp mutant cells, cAMP HTRF, 30 min; control for the full effect not named in the record. AID 624287. Potency, µM (highest dose often 76.9 µM), inactives show at the top dose activation (cAMP increase), actives largely listed as activators. 340,000 compounds, 0.13% hits; active = well fitted activation curve with a large enough effect; inconclusive = small, poorly fitted or top-dose-only effect, or another doubt; inactive = no such curve, though single readings can be large or run the other way; cell line not stated here;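 further: phosphodiesterase inhibitor Ro 20-1724 added with compounds to block cAMP breakdown; potency means the concentration at half of the fitted maximal effect; nearly all actives have a fitted effect of over 60% in size; about a fifth of the inactives were tested at one dose only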
#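 Cells stably selected in G418 were plated at 2000/well, grown 16-24 hr, then given compounds in DMSO with the PDE inhibitor […] (300 uM solution added) for 30 min at 37C; cAMP was read by HTRF.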
# gsp antag: antagonists of gsp mutant (McCune-Albright syndrome); 340,000 compounds, 0.4% hits; AID 624288; gsp-mutant cells, cAMP HTRF, 30 min; control for the full effect not named in the record; Potency, µM (series often up to 76.9 µM), for the others: at the highest dose activity change, negative = inhibition, usual class: inhibitors; active = falling curve of any shape with a large fitted effect; inconclusive = falling curve, mostly with a smaller effect; inactive = flat or rising curve; cell line not stated here;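 further: intracellular cAMP measured with PDE inhibitor Ro 20-1724 present during compound exposure; potency means the concentration at half of the fitted maximal effect; on the % scale 0 is the no-effect control and ±100 the full control effect; nearly all actives have a fitted effect of over 65% in size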
#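 Cells in G418 medium, seeded 16-24 h, 37C; buffer exchange to DPBS + 1 mM CaCl2, 0.5 mM MgCl2, 0.05% BSA; cpds in DMSO + […] (300 uM stock), 30 min 37C; HTRF cAMP detection.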
# Sfp PPTase inh: blocks B. subtilis Sfp PPTase activity. Biochemical Sfp PPTase activity, qHTS. Potency, µM, without a hit: max response, negative = inhibition, hits mostly inhibitors. Q9F4F7. AID 1490. 310,000 compounds, 3.5% hits; active means well fitted inhibition curve with a large enough effect; inconclusive means small, poorly fitted or top-dose-only effect, or another doubt; inactive means no such curve, though single readings can be large or run the other way;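 further: the enzyme is Sfp with the accession as filed and its product quenches rhodamine fluorescence; potency means the concentration at half of the fitted maximal effect; 0% = enzyme reaction without inhibitor and -100% = no enzyme wells; top concentration of the series not given in the record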
#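 Compounds were incubated with enzyme (final 15 nM) for 15 min at room temperature before substrate addition started the reaction. Fluorescence at 525 nm excitation, 598 nm emission was recorded immediately and after 30 minutes.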
# ClpP mod: qHTS Assay for Activators of ClpP; Potency, µM (series often up to 57.5 µM), inactives show top-dose activity change, negative = active; ATP-dependent Clp protease proteolytic subunit (Bacillus subtilis (strain 168)), P80244; 340,000 compounds, 1.9% hits; purified B. subtilis ClpP, FRET peptide cleavage, 20 min; active = well fitted falling curve with a large enough effect; inconclusive = small, poorly fitted or top-dose-only effect; inactive = no such curve, though single readings can be large or run the other way; further: potency means the concentration at half of the fitted maximal effect; the source files actives as falling curves though it sought activators and does not explain the sign; nearly all actives have a fitted effect of over 65% in size; many hits overshoot -100%
# Target sequence (P80244 whole entry, looked up): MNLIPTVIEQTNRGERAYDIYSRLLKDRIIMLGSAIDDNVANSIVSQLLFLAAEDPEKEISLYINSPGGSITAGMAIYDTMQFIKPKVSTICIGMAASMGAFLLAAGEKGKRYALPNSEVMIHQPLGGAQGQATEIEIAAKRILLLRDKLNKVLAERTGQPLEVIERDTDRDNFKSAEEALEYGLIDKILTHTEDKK
#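 Purified B. subtilis ClpP, 10 microg/mL final in Tris/HCl pH8 with KCl, BSA, glycerol and Tween-20, cleaved an Abz/nitrotyrosine-quenched decapeptide. Fluorescence (ex 320, em 430) was read at 0 and 20 min at room temperature. Delta was normalized to 5.8 microM ADEP and DMSO/no-enzyme controls.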
# TRPV1 PAM: human TRPV1 potentiation | Q8NER1 | TRPV1-expressing cells, Fluo-8 calcium influx, capsaicin EC20 potentiation; host cell line not named in the record; control for the full effect not named in the record | potentiation, % at 8.33 µM | 320,000 compounds, 0.02% hits; active means potentiation above 80%; inconclusive means 30% to 80%; inactive means below 30%; further: 0% is about no effect
# Target sequence (Q8NER1 whole entry, looked up): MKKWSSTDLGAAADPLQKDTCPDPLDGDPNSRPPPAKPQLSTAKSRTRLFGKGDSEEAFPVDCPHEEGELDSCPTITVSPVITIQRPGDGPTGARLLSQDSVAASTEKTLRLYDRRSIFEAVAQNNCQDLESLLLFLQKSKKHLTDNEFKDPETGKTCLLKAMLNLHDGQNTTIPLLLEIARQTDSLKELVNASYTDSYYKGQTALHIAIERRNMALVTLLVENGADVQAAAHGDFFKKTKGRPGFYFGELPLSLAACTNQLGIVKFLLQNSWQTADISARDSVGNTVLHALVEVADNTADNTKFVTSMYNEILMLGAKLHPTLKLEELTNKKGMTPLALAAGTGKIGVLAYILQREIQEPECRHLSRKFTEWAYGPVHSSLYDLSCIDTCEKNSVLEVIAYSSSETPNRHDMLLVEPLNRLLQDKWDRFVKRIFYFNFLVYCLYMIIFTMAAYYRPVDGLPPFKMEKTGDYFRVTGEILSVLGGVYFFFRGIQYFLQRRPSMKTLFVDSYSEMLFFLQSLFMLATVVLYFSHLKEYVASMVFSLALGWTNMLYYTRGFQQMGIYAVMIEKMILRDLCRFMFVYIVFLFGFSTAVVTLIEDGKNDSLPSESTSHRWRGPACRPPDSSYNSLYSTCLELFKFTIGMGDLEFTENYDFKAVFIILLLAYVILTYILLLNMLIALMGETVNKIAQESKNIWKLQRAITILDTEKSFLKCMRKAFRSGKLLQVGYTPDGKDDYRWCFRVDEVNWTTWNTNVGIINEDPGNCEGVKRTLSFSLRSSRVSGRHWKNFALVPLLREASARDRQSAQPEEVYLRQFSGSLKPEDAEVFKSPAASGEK
#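 Cells expressing TRPV1 were dye-loaded with Fluo-8 and read kinetically: 10 s baseline, 3 min after compound (agonist portion), then 2 min after EC20 capsaicin (allosteric enhancer portion). Calcium-bound dye fluorescence at 480/520 nm.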
# D2 potentiator: potentiates the human D2 dopamine receptor allosterically; DiscoveRx D2 beta-arrestin cells, luminescence, 90 min; 100% = 57 uM dopamine signal; potentiation, % (concentration not given with the values); 360,000 compounds, 0.23% hits; AID 624464; active = potentiation of 50% or more; inconclusive = 30% to 50%; inactive = 30% or less;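 further: tested on top of an EC20 dose of dopamine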
#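 D2 cells co-treated with compound plus 50 nM dopamine (EC20) for 90 min at 37 deg C to detect potentiation. Beta-arrestin recruitment was read as enzyme-fragment luminescence after 1 h at ambient temperature. Full response was set by 57 uM dopamine.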
# Menin-MLL FL inh: inhibitors of human menin-MLL interaction, wild-type MLL peptide; 290,000 tested, under 10 active; FP activity change, % at 61.4 µM; Fluorescence polarization, fluorescein-MLL peptide displacement from menin; AID 1766; inconclusive = falling polarisation curve, or a change in total fluorescence; inactive = total fluorescence flat and polarisation flat or rising; no compound was filed as active; the % refers to the polarisation; negative = inhibition;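 further: % of control where 0% means no effect; inhibitors lower the polarisation; unlabelled MLL peptide was the positive control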
# * hit, by the source's call; ? = inconclusive; / = not tested or not shown; [ ] = another dose, or the depositor's remark.
SMILES,gsp agonist,gsp antag,Sfp PPTase inh,ClpP mod,TRPV1 PAM,D2 potentiator,Menin-MLL FL inh
C=CCOc1ccc(/C=C/C(=O)OCC(=O)NCC2CCCCC2)cc1,-29.7%[15.4 µM],-3.8%,/,1.9%,-5.0,-33.1,/
CCC1(CC)Cc2ccccc2-c2nc(NCCO)[nH]c(=O)c21,6.1%,1.3%,-3.4%,6.31µM*,-20.9,-17.4,1.2
COC(=O)C1=C(C)NC(=O)CC1c1ccc(F)c(Br)c1 (stereo unspecified),-33.7%[inhibitor],-5.5%,4.7%,-0.3%,-5.3,-0.6,0.5
N#Cc1c(N2CCCC(O)C2)nc(N)c2c(N)nc3c(c12)CC(=O)N3C12CC3CC(CC(C3)C1)C2 (stereo unspecified),24.6%,14.6%,?,28.2%,11.6,-10.5,?
C=CCNc1nc(C(=O)OCC(=O)c2ccc(C)c([N+](=O)[O-])c2)cs1,7.5%,-8.5%,5.7%,1.5%,13.1,-15.7,/
N#CC(Cc1ccccc1)(Cc1ccccc1)C(=O)NN,5.8%[15.4 µM],5.3%,16.6%,-0.7%,3.3,-14.1,-4.4
O=C(Nc1ccccc1-c1ccccc1)NC1CC2CCCC(C1)N2CCc1ccccc1 (stereo unspecified),-36.2%[inhibitor],12.0%,5.0%,1.2%,-1.1,-10.4,-3.8
O=C(C1CCCN(Cc2cccc(Cl)c2)C1)N1CCCCC1 (stereo unspecified),-42.0%[inhibitor],5.5%,?,1.0%,11.1,-18.1,/
COc1ccc(OC)c(CNc2c(C=O)c(=O)[nH]c3ccccc23)c1,-6.2%[15.4 µM],1.7%,8.9%,-6.0%,0.6,-0.3,0.4
Cc1ccc(-c2csc(CC(N)=O)n2)cc1,-4.5%,3.8%,14.0%,-0.3%,-22.9,-2.1,2.5
NS(=O)(=O)OCCCc1ccccc1,-21.9%,10.3%,30.0%,-2.1%,-4.3,-8.5,-0.6
CCOc1ccc(Cl)cc1S(=O)(=O)N1CCC(C(=O)NCc2ccccn2)CC1,16.5%[15.4 µM],-35.2%,9.9%,/,1.3,-7.5,-3.2
Cc1cc(NC(=O)CSc2nnc(COc3ccccc3)n2Cc2ccco2)no1,-20.1%,10.7%,-9.4%,0.8%,13.8,-9.8,2.0
O=Cc1c(NCCc2cccc(F)c2)c2ccccc2[nH]c1=O,-2.3%[15.4 µM],-11.4%,25.1%,-0.2%,-23.1,-2.6,1.1
Cc1nc(N2CCNCC2)c2c3c(sc2n1)CCCC3,0.9%,5.7%,24.7%,-1.7%,22.1,-24.0,1.3
Cn1ncc([N+](=O)[O-])c1C(=O)NC1CCCCCC1,12.5%,5.7%,20.6%,1.5%,0.5,-0.6,0.1
COc1ccc(S(=O)(=O)CC(=O)c2cc3cccc(C)c3oc2=O)cc1,-14.5%,-16.2%,-5.4%,-0.7%,16.6,-2.9,/
O=C(COC(=O)c1ccccc1)NCC1CCCO1 (stereo unspecified),-10.7%,7.8%,1.3%,0.2%,-7.3,-12.1,0.0
O=C(CSc1cc(Cl)ccc1Cl)NCC1CCCO1 (stereo unspecified),-13.6%,0.8%,13.6%,0.9%,-2.4,-7.9,0.2
Cc1nn(C)c(Cl)c1CN1CCC(CO)(CC2CCCCO2)CC1 (stereo unspecified),10.2%[15.4 µM],3.1%,22.6%,/,-0.7,-8.6,-0.7
Cc1cc(NC(=S)N(CCCN2CCN(C)CC2)Cc2ccco2)ccc1Cl,-3.7%[15.4 µM],15.7%,-14.2%,/,-2.8,-7.9,-1.2
CCc1ccccc1-n1ncc(C(=O)Nc2ccc(OC)cc2)c1C,-1.7%,-10.0%,/,/,/,-1.2,/
CCOc1ccc(C(=O)Nc2ncccc2Cl)cc1,-32.2%[inhibitor],-6.7%,22.5%,1.5%,-9.5,-10.4,0.8
CC(OC(=O)c1nsc(Cl)c1Cl)C(=O)NCc1cccs1 (stereo unspecified),20.4%,-3.9%,2.0%,-1.2%,-5.4,-6.6,2.5
COC(=O)C1=C(COc2ccc(F)cc2)NC(=O)NC1c1ccc(C)cc1C (stereo unspecified),-37.8%[inhibitor],1.9%,3.6%,10.8%,-1.9,-7.8,3.2
COc1ccc(OC)c(-n2c(C)cc(/C=C3\C(=N)N4N=C(CC(=O)N5CCOCC5)SC4=NC3=O)c2C)c1,29.5%,-6.1%,13.5%,-5.0%,-3.2,-8.3,/
CCOC(=O)C1(Cc2ccccc2)CCN(Cc2ccc(COC)o2)CC1,-20.3%[15.4 µM],7.1%,14.6%,/,-4.7,-5.3,0.2
COc1cc(OC)c(CN2CCCN(C)CC2)cc1Br,13.9%[15.4 µM],7.3%,-20.5%,-1.8%,1.6,-13.8,-1.9
CC(=O)c1ccc(N2CCN(c3ccc(S(=O)(=O)N4CCN(C)CC4)cn3)CC2)cc1,?,57.1%[activator],3.7%,-4.4%,-9.5,4.0,4.7
O=C1CNC(=S)N1Cc1ccc(F)cc1,-10.6%,11.4%,14.7%,0.7%,10.7,-9.8,-3.1
CN(C)/N=C/c1ccc(OC(=O)c2cccc([N+](=O)[O-])c2)cc1,-1.5%[15.4 µM],-3.0%,-5.0%,/,2.1,1.7,-0.1
CCc1cc2c(=O)c(-c3ccc(F)cc3)c(C)oc2cc1OCC(=O)O,-8.0%[15.4 µM],-3.1%,12.4%,/,2.5,-3.4,0.4
O=C(CN1C(=O)NC2(CCCCC2)C1=O)Nc1cc(C(F)(F)F)ccc1N1CCCCC1,2.0%[15.4 µM],-3.7%,/,0.1%,-1.3,-1.1,/
C(=N\Nc1nc(N2CCOCC2)nc(N2CCOCC2)n1)/c1ccncc1,3.4%[15.4 µM],-0.8%,31.2%[activator],/,-1.4,-3.1,0.9
CCOC(=O)CCN(C(=O)Nc1ccccc1)C1CCCCC1,8.0%[15.4 µM],1.0%,/,5.4%,/,-6.3,/
COc1ccc(OCC(=O)NNC(=O)Nc2cccc(Cl)c2)cc1,1.0%[15.4 µM],1.3%,7.9%,-14.2%,11.0,-15.3,0.3
COc1ccc(OCCCC(=O)OCC(=O)Nc2c(C)nn(-c3ccccc3)c2C)cc1,-40.6%[inhibitor],5.4%,/,-5.0%,-9.9,14.4,/
Cc1cccc(-n2cnc3c(sc4nc(N5CCOCC5)c5c(c43)CCCC5)c2=O)c1,9.4%[15.4 µM],-7.2%,-10.5%,/,6.9,-8.4,-0.1
C=CCn1c(C)nc2ccccc2c1=O,-33.2%[inhibitor],7.7%,-2.3%,-2.0%,-1.9,-21.3,-3.4
COc1ccc(NC(=O)CSc2nnnn2-c2ccccc2OC)c(OC)c1,2.2%,-22.1%,7.6%,-1.6%,6.6,-1.4,-3.0
Cc1ccc(CSc2ncnc3c2cnn3Cc2ccccc2)cc1,-44.1%[inhibitor],9.4%,-6.5%,-6.8%,-20.0,1.2,0.7
COc1ccc(NC(=O)C/C(C)=N/NC(=O)c2ccncc2)c([N+](=O)[O-])c1,-26.2%,8.8%,18.3%,/,-25.9,-0.4,2.0
COc1cc(C)c(/C=C(\C#N)C(=O)Nc2ccc(C)cc2)cc1C(C)C,-2.4%[15.4 µM],6.7%,?,-1.6%,-6.1,-15.8,2.9
CNC(=O)/C(C#N)=C/c1c(N2CCN(c3ccccc3)CC2)nc2c(C)cccn2c1=O,13.3%[15.4 µM],-14.5%,15.0%,-1.0%,-9.7,4.7,-0.4
Cc1ccc(C)c(NC(=O)Cc2ccc(S(=O)(=O)N3CCCCC3)s2)c1,17.6%[15.4 µM],-17.3%,17.0%,-0.4%,-15.8,-20.3,-0.6
Cc1ccc(-c2noc(C3CCCN(C(=O)c4ccc(C(C)(C)C)cc4)C3)n2)o1 (stereo unspecified),-3.9%[15.4 µM],?,-7.7%,/,-5.5,-9.7,/
CCOC(=O)Cc1csc2nc(-c3ccccc3)nn12,-29.9%,-0.9%,9.9%,1.8%,3.8,-0.9,3.7
CC(=O)N/C(=C\c1ccc(F)cc1)C(=O)NC(Cc1c[nH]c2ccccc12)C(=O)O (stereo unspecified),13.5%[15.4 µM],7.1%,17.0%,0.1%,-8.0,0.0,2.4
COC(=O)C1=C(C)N=c2s/c(=C/c3cccs3)c(=O)n2C1c1cccs1 (stereo unspecified),-31.6%[inhibitor],-8.6%,11.5%,-1.0%,21.9,6.5,-6.6
CCc1nc2ccc(C(=O)N3CCN(c4ccc([N+](=O)[O-])cc4)CC3)cc2nc1CC,27.4%,?,-2.4%,1.7%,7.0,-2.9,/
O=C1CCC(C(=O)Nc2cccc(Br)c2)N1 (stereo unspecified),-2.6%[15.4 µM],10.9%,-5.3%,-2.1%,7.1,-16.7,-1.7
CCC(=O)Nc1ccc(Oc2ccc(NC(=O)CC)c(NC(=O)CC)c2)cc1,-4.0%,3.7%,-6.9%,-0.1%,-15.5,-2.9,6.0
C[C@H]1COC(=O)[C@@H](CC(=O)OC(C)(C)C)C/C=C\C[C@H](CC(=O)NCCO)C(=O)N1,?,17.3%,/,-0.4%,/,-3.7,/
COc1ccc(Nc2nc(N3CCOCC3)nc(N3CCOCC3)n2)cc1Cl,7.0%[15.4 µM],-11.8%,0.0%,-9.6%,14.6,-2.4,-0.9
O=C(CSc1nc2c(sc3ccccc32)c(=O)n1CCCN1CCOCC1)NCC1CCCO1 (stereo unspecified),-5.2%[15.4 µM],-1.9%,13.5%,1.4%,7.5,-8.2,-4.4
CCOc1ccc(CN2CCN(Cc3cc4c(cc3Cl)OCO4)CC2CCO)cc1 (stereo unspecified),-10.1%[15.4 µM],0.2%,-8.6%,/,-16.7,-8.8,0.0
CCSc1nnc(-c2cccc(S(=O)(=O)N(C)C)c2)n1-c1cc(OC)ccc1OC,-47.3%[inhibitor],-5.0%,13.2%,-1.3%,-3.0,-5.5,1.6
CC(C)Oc1ccc(C(=O)NC(=S)N2CCOCC2)cc1,-12.7%,6.9%,-1.5%,-2.3%,-12.4,-12.6,-3.4
CCCc1nc2ccccc2c(C(=O)OC2CCOC2=O)c1CC (stereo unspecified),6.2%,3.6%,10.8%,53.1%,-1.5,-9.3,1.1

# Assay outcomes from PubChem BioAssay.

# This is a random part of the collection; any-hit rate near 5.1%.
